ALR inh – inhibitors of human ALR sulfhydryl oxidase, primary screen, biochemical, H2O2 detection, HRP-luminol luminescence, single point; FAD-linked sulfhydryl oxidase ALR (Homo sapiens), P55789; purified ALR, DTT oxidation; inhibition, % (test concentration not listed); 3.8% of 290,000 active;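 active means mean and each replicate at 75% or more; inconclusive means only one of the two met; inactive means neither met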;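 further: stock transfer was 7.5 nL into about 7.5 µL; 0% = neutral wells and 100% = wells with inactivated enzyme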
LANA-H2B inh – blockers of LANA interaction with H2A/H2B – biochemical, FP readout, HTS, primary screen; 0.6% of 320,000 active; cell-free LANA-H2A/H2B peptide, fluorescence polarization; Protein LANA1 (Human herpesvirus 8 type P (isolate GK18)), Q9QR71; inhibition, % (test concentration not listed); in the data active means inhibition mostly above about 10%, no sharp cut-off; inactive means mostly below about 6.7%;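 further: stock transfer was 7.5 nL into about 10 µL; 0% = median of vehicle wells and 100% = median of positive control wells; one replicate is shown; the record names a cut of 25% in any replicate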
Target sequence (Q9QR71 whole entry, looked up): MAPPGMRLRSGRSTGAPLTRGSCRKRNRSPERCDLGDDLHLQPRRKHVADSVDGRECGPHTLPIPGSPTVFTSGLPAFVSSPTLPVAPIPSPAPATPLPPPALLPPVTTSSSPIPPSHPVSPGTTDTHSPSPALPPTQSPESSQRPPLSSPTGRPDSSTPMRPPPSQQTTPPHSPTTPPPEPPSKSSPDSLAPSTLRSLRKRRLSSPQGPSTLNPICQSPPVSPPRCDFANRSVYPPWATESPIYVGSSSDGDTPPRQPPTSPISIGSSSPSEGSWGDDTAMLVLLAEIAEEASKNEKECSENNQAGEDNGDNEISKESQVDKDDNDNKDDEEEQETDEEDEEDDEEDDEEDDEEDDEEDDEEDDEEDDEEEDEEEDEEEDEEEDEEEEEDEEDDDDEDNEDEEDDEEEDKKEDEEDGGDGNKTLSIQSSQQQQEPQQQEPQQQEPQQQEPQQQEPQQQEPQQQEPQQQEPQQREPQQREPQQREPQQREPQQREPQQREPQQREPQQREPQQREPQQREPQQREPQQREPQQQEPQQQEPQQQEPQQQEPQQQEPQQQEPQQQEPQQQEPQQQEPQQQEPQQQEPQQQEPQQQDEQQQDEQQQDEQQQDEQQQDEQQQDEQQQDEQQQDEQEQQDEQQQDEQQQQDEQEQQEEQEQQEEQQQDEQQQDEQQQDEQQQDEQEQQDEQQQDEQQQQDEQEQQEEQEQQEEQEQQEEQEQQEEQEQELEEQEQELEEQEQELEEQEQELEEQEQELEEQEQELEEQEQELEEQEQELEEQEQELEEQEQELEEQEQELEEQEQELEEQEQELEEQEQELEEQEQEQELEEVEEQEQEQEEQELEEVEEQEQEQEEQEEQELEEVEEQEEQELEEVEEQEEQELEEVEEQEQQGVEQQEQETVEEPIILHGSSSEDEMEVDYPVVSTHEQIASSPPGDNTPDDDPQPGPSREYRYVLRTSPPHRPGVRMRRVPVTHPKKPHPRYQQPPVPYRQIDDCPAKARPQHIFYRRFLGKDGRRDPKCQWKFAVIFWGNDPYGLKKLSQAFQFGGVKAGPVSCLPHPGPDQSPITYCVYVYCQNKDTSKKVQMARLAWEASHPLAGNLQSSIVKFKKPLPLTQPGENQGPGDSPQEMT
Calb FLC – C. albicans growth inhibition with fluconazole, primary screen, CaCi-2 strain, Alamar Blue fluorescence; growth inhibition, % (test concentration not listed); 0.57% of 300,000 active; C. albicans CaCi-2 (fluconazole-resistant clinical isolate) + fluconazole, 48 h; AID 1979, 2009;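 active means most replicates above 75%; inconclusive means exactly half above 75%; inactive means most below 75%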;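 further: all wells also contain fluconazole at 8 µg/ml as a sub-toxic cotreatment; 0% = median of DMSO wells and 100% = median of geldanamycin control wells; wells of about 8 µL received 7.5 nL stock; the first replicate is given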
T cruzi repl – inhibitors of intracellular T. cruzi growth, primary screen, luminescence, NIH3T3 host cells. T. cruzi beta-gal in NIH3T3, 90 h. inhibition, % (concentration not given with the values). 1.4% of 300,000 active. AID 1885, 2009;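 active means mean inhibition across valid replicates above about 55%, limit read from the data; inconclusive means mean below that limit but half or more replicates reach it; inactive means mean below it, under half of replicates reach it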;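 further: signal also drops with host cell toxicity which is not excluded here; 0% = plate median of DMSO wells and 100% = zero luminescence signal; higher percent means less beta-gal luminescence so fewer parasites; stock transfer was 50 nL into about 50 µL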
Beta2AR agonist – beta2AR agonists driving receptor internalization, primary screen, cell-based, FAP fluorogen, flow cytometry; 0.43% of 340,000 active; response, % (concentration not given with the values); AID 504454, 2011; Am2.2-beta2AR cells; reference of the scale not given here; Beta-2 adrenergic receptor (Homo sapiens), P07550;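 active means response above a set limit, near 3 SD of response in nonfluorescent compounds, cut at about 42% in these data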;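 further: stock transfer was 100 nL into about 11 µL; a reference agonist was the positive control; negative values mostly stem from fluorescent compounds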
Beta apoptosis – inhibitors of cytokine-induced beta cell apoptosis, primary screen, luminescence; INS-1E cytokine-induced death, ATP luminescence, 48 h; percent of positive-control rescue, neutral wells zero; protection from apoptosis, % (no concentration beside the values); 0.8% of 300,000 active; AID 435005, 2010;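 active means all replicates at 75% or more, or half of them and the mean; inconclusive means half reach 75% but not the mean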;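 further: 0% = cytokine-treated negative control wells and 100% = positive control rescue; higher means more ATP so stronger rescue from cytokine killing; wells of about 40 µL received 100 nL stock; the first replicate is given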
A1 inh – caspase 3/7 activation in MEF A1-2A-BIM cells, primary screen, A1 inhibitor project, cell-based, luminescence, HTS | Caspase-Glo 3/7 luminescence, 3 h; percent of clofoctol response, vehicle zero | caspase activation, % (test concentration not listed) | 0.066% of 330,000 active;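 active means over half of replicate activation scores above 10%, or exactly half above 10 with the replicate mean above 10; inconclusive means replicate mean below 10 yet half the replicates above 10; inactive means over half of replicates below 10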;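 further: wells of about 30 µL received 50 nL stock; many hits fall short of the cut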
rRNA inh HTS – reduced GFP signal of wild-type E. coli, primary screen, bacterial rRNA inhibitor project, GFP/RFP fluorescence, OD600, single point; E. coli WT GFP vs humanized-ribosome RFP mutants, 24 h; stronger effect = lower value; DMSO median 0, no signal -100; 1.6% of 350,000 active; GFP signal change (wild-type ribosome), % (test concentration not listed);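 active means significant combined selectivity score with lowered wild-type GFP, culture density cut under 30%, mutant RFP and density less affected; inactive means any of these conditions unmet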; further: one replicate is shown; some compounds called inactive have numbers as strong as hits
rRNA inh HTS OD600 – second read-out of rRNA inh HTS, no call of its own (marks repeat the call); OD600 change, %; measured here: OD600 growth;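 optical density of the mix in the first replicate; 0 = DMSO median and -100 = no signal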
rRNA inh HTS RFP – recorded beside rRNA inh HTS, whose call it bears; RFP signal change, %; measured here: RFP humanized mutant strains;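 first replicate; 0 = DMSO median and -100 = no signal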
Active calls of the source: *; ? = inconclusive; · = not tested or not shown. A portion of the library; the hit share may differ from the screen's.

structure,ALR inh,LANA-H2B inh,Calb FLC,T cruzi repl,Beta2AR agonist,Beta apoptosis,A1 inh,rRNA inh HTS,rRNA inh HTS OD600,rRNA inh HTS RFP
O=c1[nH]c2ccsc2c(=O)n1-c1ccc(F)cc1,0,-0.6,20,-23,0,-5,-1.3,·,·,·
Cc1csc(NC(=O)Cc2c(F)cccc2Cl)n1,-4,-1.2,-10,4,0,5,0.2,-1,-7,-4.4
COc1ccc(CCNC(=O)c2cc(-c3cc(C)ccc3O)n[nH]2)cc1OC,96*,-4.0,-21,-8,10,5,0.1,·,·,·
O=C1c2ccccc2C(Nc2ccc(S(=O)(=O)N3CCOCC3)cc2)N1Cc1ccco1 (stereo not drawn),8,3.7,1,7,-59,2,-0.5,-1,-5,-1.9
Cc1nn(C)c(Cl)c1CN1CCCC(CO)(Cc2ccccc2)C1 (stereo not drawn),-6,3.1,-18,6,10,-1,-0.7,8,-13,2.7
COc1cc(C)ccc1OCC(=O)OCC(=O)c1cc(C)n(CC2CCCO2)c1C (stereo not drawn),-2,-2.9,·,·,2,-1,-0.6,0,-17,0.4
COc1ccc(-c2cc(C)no2)cc1S(=O)(=O)N(C)Cc1ccco1,-5,-2.1,0,4,-10,-1,-0.7,-6,-7,2.3
COc1ccc2c(c1)c1nnc(SCC(=O)Nc3ccccc3F)nc1n2C,·,-2.2,3,3,1,-3,1.2,12,8,8.0
O=C(Nc1ccc(N2CCOCC2)c(F)c1)c1ccncc1,1,2.3,-11,-4,9,-5,0.2,·,·,·
CC1CN(C(=O)COC(=O)[C@@H]2CC(O)CN2S(=O)(=O)c2ccc3c(c2)OCCO3)CC(C)O1 (stereo partly drawn),·,-0.1,-5,-18,-1,-4,0.4,·,·,·
COc1ccc(C(=O)NNC(=S)NC(=O)C(C)(C)C)cc1,57,1.9,-11,12,4,45,-0.8,-40,-50,-13
COc1cccc2c(=O)n(CC(=O)NCCc3ccccc3)ccc12,-2,-5.2,-2,-6,-9,1,-0.1,11,6,-3.8
O=C(c1cc2ccccc2oc1=O)N1CCN(C(=O)C2CCCO2)CC1 (stereo not drawn),-8,-1.4,7,-5,4,5,?,13,5,-2.4
COc1ccc2[nH]c3ccc(OC)cc3c2c1,97*,1.7,-7,2,4,-4,0.3,·,·,·
CN(C)S(=O)(=O)c1cccc(C(=O)OCC(=O)N2CCCC2=O)c1,0,-4.5,6,-14,5,-3,-0.1,11,13,-1.2
COc1ccc(CCC(=O)OCC(=O)Nc2c(C)n(C)n(-c3ccccc3)c2=O)cc1,-1,0.1,·,·,2,-2,0.1,20,15,1.0
O=C(COC(=O)c1n[nH]c2ccccc12)c1cc(F)ccc1F,6,-3.0,6,-3,-1,-5,-0.1,-14,-2,6.3
CCOC(=O)COc1cccc2c(=O)n(CC(=O)N3CCCc4ccccc43)ccc12,97*,-3.9,13,-4,26,2,0.6,-10,-13,-4.3
Cc1onc(-c2ccccc2)c1C(=O)N/N=C/c1cccc(O)c1,25,4.7,1,-33,1,-1,0.6,11,0,3.7
CC(=O)c1ccc(OCc2cc(C(=O)N3CCCCC3c3cccnc3)no2)cc1 (stereo not drawn),-5,-0.2,-3,46,-5,?,0.0,-28*,-20*,-1.8*
COc1ccc(C(CNC(=O)Cc2c(F)cccc2Cl)N2CCCCC2)cc1 (stereo not drawn),3,0.8,-1,9,-9,-2,-0.8,16,6,4.0
COc1ccc(-c2onc(C)c2-c2ccccc2)c(O)c1,-5,1.8,9,-10,-6,3,1.1,·,·,·
O=C(COC(=O)c1ccco1)c1ccc(F)cc1,0,0.5,3,-18,-3,-3,-2.0,5,7,-3.2
COc1cc2nc(Cl)nc(NCCO)c2cc1OC,21,7.3,4,-13,-4,-2,0.2,3,3,0.8
Cc1ccc(NC(=O)C(C)N2CCCC2)cc1Cl (stereo not drawn),·,-3.3,?,4,4,-7,0.0,-3,-3,-0.2
COc1cccc(C(O)c2nc3ccccc3n2C)c1 (stereo not drawn),5,-1.7,-1,-2,0,-3,0.1,-2,19,3.6
CC(C)CCN(C(=O)c1ccc(N2CCCC2=O)cc1)c1c(N)n(Cc2ccccc2)c(=O)[nH]c1=O,-1,5.1,·,-6,-5,-1,-0.7,0,3,-1.8
COc1ccc(Nc2nc3nonc3nc2N2CCCCC2)cc1,-6,1.1,-2,3,-6,-3,-1.1,-16,-13,-0.5
Cc1ccc(C23CC4CC(CC(NC(=O)NN)(C4)C2)C3)cc1,0,2.7,1,15,13,-1,1.4,3,-13,-1.2
COC(=O)c1ccc(NC(=O)CSc2nncn2-c2cccnc2)cc1,·,-0.4,-1,-8,-13,-5,0.1,3,6,-1.3
O=C(c1cc[n+]([O-])cc1)N1CCCC(N2CCN(c3cccc(C(F)(F)F)c3)CC2)C1 (stereo not drawn),-15,21*,10,-1,-1,3,-0.4,5,4,2.2
O=C(CSc1nnc2c(n1)[nH]c1ccc(F)cc12)NCc1ccc(F)cc1,2,2.7,3,-1,-9,-1,-0.1,8,10,-1.7
O=[N+]([O-])c1ccccc1CNC(Cc1ccccc1)c1ccccc1 (stereo not drawn),-1,16,-7,20,-1,2,0.2,-30*,-21*,-0.2*
O=C(Nc1ccccn1)c1cc(-c2ccc(Cl)s2)nc2ccccc12,0,0.9,·,·,-3,0,1.4,-3,-7,-0.5
CSc1ccc(S(=O)(=O)Nc2c(C)n(C)n(-c3ccccc3)c2=O)cc1,7,3.7,-3,-9,-9,-11,0.4,-5,-6,-4.5
CN(Cc1ccc(F)cc1)S(=O)(=O)c1nnc(NC(=O)c2ccccc2)s1,-1,1.5,-4,-23,-6,22,0.3,-1,2,-0.5
O=C(CSc1ncnc2c1cnn2-c1ccc(Cl)cc1)NCc1ccc2c(c1)OCO2,-1,4.5,3,-11,-7,-4,0.5,·,·,·
O=C(CCN1CCOCC1)c1ccc(Br)cc1,98*,-5.1,-1,15,2,-7,0.9,3,2,-5.9
COc1cccc2cc(C(=O)N3CCc4ccccc4C3)c(=O)oc12,3,0.8,-1,-3,-3,-2,-0.1,·,·,·
COc1cc2nc(Nc3ccc(C)c(C)c3)nc(N)c2cc1OC,41,0.4,-11,56*,22,6,-2.1,-38*,-16*,1.2*

Shown as a hit in LANA-H2B inh, of those listed so far:
| mol | ALR inh | LANA-H2B inh | Beta2AR agonist | A1 inh | rRNA inh HTS | rRNA inh HTS OD600 | rRNA inh HTS RFP |
| --- | --- | --- | --- | --- | --- | --- | --- |
| O=C(c1cc[n+]([O-])cc1)N1CCCC(N2CCN(c3cccc(C(F)(F)F)c3)CC2)C1 (stereo not drawn) | -15 | 21* | -1 | -0.4 | 5 | 4 | 2.2 |

Other structures.
structure,ALR inh,LANA-H2B inh,Calb FLC,T cruzi repl,Beta2AR agonist,Beta apoptosis,A1 inh,rRNA inh HTS,rRNA inh HTS OD600,rRNA inh HTS RFP
COc1cc(S(=O)(=O)NCCc2ccc3c(c2)OCO3)ccc1-n1cnnn1,1,-9.6,-29,-6,0,-4,-0.3,·,·,·
Cc1cc(SCC(=O)OCC(=O)NCC2CCCO2)c(C)cc1Br (stereo not drawn),-10,7.7,36,3,-3,1,-0.3,-25*,-10*,9.7*
O=C(Cc1ccc(Br)c2ccccc12)N/N=C/c1ccccn1,14,0.1,52,-9,-2,-1,-0.5,-48,-73,-14
COc1ccc(OC)c(-n2c(SCC(=O)NCc3ccco3)nnc2-c2c[nH]c3ccccc23)c1,-9,1.3,1,17,4,-4,·,-3,-9,4.9
O=[N+]([O-])c1ccc(N/N=C2\CC3CC=CC23)c([N+](=O)[O-])c1 (stereo not drawn),-9,-0.7,-21,11,-2,54,0.5,4,-4,1.3
CCOC(=O)[C@H]1[C@H]2COc3ccc(Br)cc3[C@@H]2N2C(=O)N(c3ccccc3)C(=O)[C@@]12C,-4,10,·,·,-11,-4,-1.3,7,-11,-2.0
CC(C)c1ccccc1NC(=S)NCc1nc2ccccc2[nH]1,-18,-5.0,-4,1,-3,3,0.7,-31,-38,-12
c1cnc(SCCOc2ccc3c(c2)CCC3)nc1,0,1.7,101*,-7,-13,-10,-1.1,·,·,·
CC(Sc1ncnc2ccccc12)C(=O)Nc1ccc2c(c1)OCCO2 (stereo not drawn),·,-0.6,11,-26,-2,-6,-0.3,·,·,·
COc1cc(/C=N/NC(=O)c2sc(N)c(C#N)c2C)cc(Br)c1O,17,0.0,-5,6,6,-16,-0.5,·,·,·
CC(C)c1nnc(NC(=O)CCC(=O)NCc2ccco2)s1,-5,-13,-11,-10,6,-4,0.5,·,·,·
COCCOc1ccc(C(F)(F)F)cc1N,0,3.2,-19,-3,-2,-8,-0.2,18,23,3.0
CN1CCN(NC(=O)c2cccc(F)c2)CC1,10,0.6,10,·,-15,-3,0.4,·,·,·
Cn1c(=O)c2nc3ccccc3nc2n(C)c1=O,-9,-18,3,-6,-3,2,2.8,-7,-2,-1.4
COc1cccc(C2(O)CCN(CC(=O)NCC3CC3)CC2)c1,-7,3.1,-16,-10,0,-5,0.2,17,10,2.6
COc1ccnc(Nc2cccc(C)c2)c1C#N,-8,-5.0,-9,4,-5,-7,0.0,-13,-6,2.2
CCn1cc(Br)c(C(=O)Nc2sc3c(c2C(N)=O)CCCC3)n1,1,-5.2,6,15,-17,-4,1.1,·,·,·
CN(C)CCN1CCc2ccccc21,-25,3.9,-2,38,3,2,0.4,·,·,·
CC(C)(C)N=C(NS(=O)(=O)c1cccs1)c1ccccc1,·,·,6,-9,21,·,·,14,14,2.0
COc1ccccc1N1CCN(C(=O)CCNS(=O)(=O)c2ccc3c(c2)CCC(=O)N3)CC1,32,3.7,-1,2,-1,·,-0.1,·,·,·
Cn1c(N2CCOCC2)c(C=O)c2ccccc21,11,0.7,-2,2,5,0,-0.5,7,2,-1.2
CC(=O)N1CC(=O)N=C1SCC(=O)Nc1nc(-c2ccccc2)c(-c2ccccc2)s1,99*,-0.8,-5,19,21,·,1.7,·,·,·
Cc1c(CCO)sc[n+]1CC(=O)OC12CC3CC(CC(C3)C1)C2,0,-3.0,-20,3,-2,1,-0.4,·,·,·
C=CCNC(=O)c1ccccc1S(=O)c1ccccc1C#N (stereo not drawn),99*,-1.4,8,-15,-4,-6,0.7,·,·,·

Screens from PubChem.
